# Screening results as filed in PubChem BioAssay.
# Rango complex inh: qHTS Assay for Inhibitors of Rango (Ran-regulated importin-beta cargo) - Importin beta complex formation | Importin subunit beta-1 (Homo sapiens), Q14974 | Rango CFP/YFP FRET sensor + importin beta, 45 min | Potency, µM (highest dose often 92.2 µM), for inactives: at the highest dose inhibition of complex formation | hit rate 0.031% among 340,000 | AID 540263, 2011; active = rising FRET ratio curve, often small or poorly fitted; inconclusive = mostly compound fluorescence or quenching in the first reads; inactive = flat curves in all reads;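 also: potency is read from the fitted curve at half-maximal effect; 0% = DMSO wells and 100% = buffer wells lacking importin beta; nearly all actives have a fitted effect of over 15% in size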
# Target sequence (Q14974 whole entry, looked up): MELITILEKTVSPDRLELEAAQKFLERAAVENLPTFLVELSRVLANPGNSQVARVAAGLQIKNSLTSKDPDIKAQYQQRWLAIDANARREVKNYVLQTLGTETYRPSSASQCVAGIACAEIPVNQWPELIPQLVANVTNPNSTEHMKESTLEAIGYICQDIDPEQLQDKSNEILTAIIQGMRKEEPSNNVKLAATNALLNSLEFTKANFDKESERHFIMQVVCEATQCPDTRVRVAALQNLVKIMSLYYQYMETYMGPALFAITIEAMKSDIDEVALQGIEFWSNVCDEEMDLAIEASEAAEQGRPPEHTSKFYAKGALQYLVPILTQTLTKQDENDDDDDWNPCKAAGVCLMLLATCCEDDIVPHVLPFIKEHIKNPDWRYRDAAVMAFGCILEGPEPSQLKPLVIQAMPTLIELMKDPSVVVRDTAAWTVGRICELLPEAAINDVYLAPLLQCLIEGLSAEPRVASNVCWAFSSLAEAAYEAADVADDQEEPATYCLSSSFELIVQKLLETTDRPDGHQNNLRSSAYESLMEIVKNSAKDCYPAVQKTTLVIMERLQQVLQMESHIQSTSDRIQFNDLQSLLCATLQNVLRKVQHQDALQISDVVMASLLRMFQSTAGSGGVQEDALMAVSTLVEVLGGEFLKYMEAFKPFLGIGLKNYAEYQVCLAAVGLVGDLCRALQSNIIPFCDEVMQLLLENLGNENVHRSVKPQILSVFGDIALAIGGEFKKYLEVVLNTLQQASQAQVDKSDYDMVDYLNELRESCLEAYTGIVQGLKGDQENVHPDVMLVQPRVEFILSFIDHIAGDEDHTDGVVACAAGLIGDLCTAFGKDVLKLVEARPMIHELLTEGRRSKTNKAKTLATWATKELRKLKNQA
#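 FRET biosensor (snurportin 1 IBB flanked by EYFP and cerulean), 50 nM, with compound 5 min, then 0.125 microM importin beta in PBS, 1 mM DTT, 0.02% Tween-20, 0.1% BSA. CFP/YFP ratio read after 45 min at room temperature; pre-read flags interference.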
# Rango release inh: qHTS Assay for Inhibitors of RanGTP induced Rango (Ran-regulated importin-beta cargo) - Importin beta complex dissociation. Potency, µM (titrated, usually from 46.1 µM), for inactives: at the highest dose activity change, negative = inhibition. hit rate 0.071% among 340,000. Snurportin-1 (Homo sapiens) + GTP-binding nuclear protein Ran (Homo sapiens) + Importin …. AID 540253, 2011. Biochemical FRET Rango-importin beta, RanGTP-induced dissociation; active means falling FRET ratio curve, often poorly fitted, with flat reads before Ran was added; inconclusive means other falling curves, or compound fluorescence or quenching; inactive means flat or rising ratio curve;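 also: potency is read from the fitted curve at half-maximal effect; % of control where 0% means no effect; nearly all actives have a fitted effect of over 45% in size; -100% = wells without RanGTP and RCC1; the record marks most hits as doubtful in a second field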
#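 FRET read at 45 min, room temperature: inhibitors block the CFP/YFP signal rise when RanGTP (0.6 uM Ran, 2 mM GTP, 0.2 uM RCC1) frees Rango (0.1 uM) from importin beta (0.25 uM). Pre-read after 5 min compound exposure flags interference.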
# miR-21 reporter: qHTS Assay for Modulators of miRNAs and/orActivators of miR-21 | HeLa miR-21 FLuc reporter, luciferase, 48 h | Potency, µM (highest dose often 38.3 µM), for the others: top-dose reporter change, positive = more light | 340,000 tested, under 10 active; active = well fitted rising curve with a large enough effect; inconclusive = small, poorly fitted or top-dose-only effect; inactive = no such curve, though single readings can be large or run the other way;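 also: % of control where 0% means no effect; miR-21 action dims this reporter so a rising signal means less miR-21 action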
#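 HeLa cells stably expressing CMV-driven firefly luciferase with a downstream miR-21 binding sequence, endogenously expressing miR-21, were treated with titrations (up to about 40uM final) for 48 hours at 37 degree Celsius. Luciferase luminescence was read after lysis.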
# GLA inh pH 4.5: qHTS Assay for Inhibitors of Human alpha-Galactosidase at pH 4.5. Alpha-galactosidase A (Homo sapiens), P06280. purified enzyme, 4-MU-alpha-Gal fluorescence, pH 4.5. activity change, negative = inhibition, % at 105 µM. 230,000 tested, under 10 active. AID 1467, 2008; inconclusive = small, poorly fitted or top-dose-only inhibition, or a rising curve; inactive = flat fitted curve, though single readings scatter; no compound was filed as active;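 also: 0% = full activity with enzyme and -100% = basal without enzyme; dose as in the result columns while the protocol names 77 µM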
# Active calls of the source: *; ? = inconclusive; nt = not tested or not shown; & = joins results of further samples; [ ] = dose if it differs, or a comment. A portion of the library; the hit share may differ from the screen's.
SMILES,Rango complex inh,Rango release inh,miR-21 reporter,GLA inh pH 4.5
CC(=O)Oc1ccccc1-c1nc(/C=C/c2ccccc2)no1,2.7%,0%,-41%,nt
O=C(Nc1cccc2ccccc12)N1CCOCC1,0.2%,4%,-4%,1
CC1=C(C(=O)Nc2cc(C)ccn2)C(c2ccc(C)cc2)C2=C(CCCC2=O)N1 (configuration not stated),?,?,-4%,7
Cc1cc(NC(=O)CCC(=O)N(CC(=O)NC2CCCC2)c2ccc(F)cc2)no1,4.5%,-1%,-1%,nt
CCN1CCCC1CNCc1cccc(OC)c1OCc1ccccc1F (configuration not stated),-0.3%,1%,-8%,1
Cc1ccccc1C(=O)Nc1ccc(CN2CCOCC2)cc1,-0.6%,-2%,-19%,nt
COc1ccc(C2=NS(=O)(=O)N(C)C(C(=O)N3CCOCC3)=C2)cc1,-1.2%,-7%,-5%,nt
O=S(=O)(/C=C/c1ccccc1)NCc1ccccc1Cl,1.2%,6%,-10%,0
CCNc1nc(Oc2ccc(C(=O)OCC)cc2)nc(SC)n1,-2.1%,3%,-10%,-7
CCOC(=O)Cc1csc(NC(=O)CN2C(=O)c3ccccc3C2=O)n1,-0.1%,-18%,1%,3
O=C(Nc1ccc(SC(F)(F)F)cc1)c1ccccn1,0.8%,-14%,-62%,-2
O=C(COC(=O)CNC(=O)c1ccc(Cl)cc1)Nc1ccc2c(c1)OCCO2,1.5%,2%,-5%,-4
O=C(NCC(=O)N1CCC2(CC1)NCCc1[nH]cnc12)c1ccccc1F,-2.3%,-5%,-4%,nt
COc1ccc(CCNC(=O)Cn2nnc(-c3cccc(OC)c3OC)n2)cc1OC,-1.6%,5%,-7%,1
Cc1nn(C2CC(O)C(O)C(CO)O2)c(=O)[nH]c1=O (configuration not stated),7.5%,-10%,nt,nt
C=CCn1c(-c2cccc3ccccc23)n[nH]c1=S,0.2%,-11%,7%,8
Cc1csc(NC(CO)c2nc3ccccc3n2CCOCCO)n1 (configuration not stated),-2.3%,-15%,nt,nt
COc1ccccc1NC(=O)Cn1c(=O)oc2cc(S(=O)(=O)N3CCCC3)ccc21,3.5%,-10%,3%,nt
COc1ccc(C(=O)N2CCN(C(=O)c3ccncc3)CC2)cc1,-0.2%,8%,-3%,5
Cc1cc(C)n2nc(C(=O)N/N=C/c3ccco3)nc2n1,-2.7%,-2%,1%,-5
COc1ccc2[nH]c3c(c2c1)CCN1C(=O)N([C@@H](C)C(=O)NCCc2ccc(OC)c(OC)c2)C(=O)[C@]31C,3.9%,?,5%,nt
O=C(CCCn1c(=O)[nH]c2ccsc2c1=O)NCc1cccs1,-1.3%,-4%,0%,-22
Cc1nc(N2CCN(C(=O)c3ccco3)CC2)c2c3c(sc2n1)CC(C)CC3 (configuration not stated),?,4%,28%,-16
Cc1ccc(NC(=S)N/N=C2/CCCCc3ccccc32)cc1,0.9%,-17%,-39%,-9
COc1cccc(NC(=O)n2ncc3c(C)cccc32)c1,2.5%,0%,-19%,nt

# Next structures:
SMILES,Rango complex inh,Rango release inh,miR-21 reporter,GLA inh pH 4.5
CC(=O)N(CC(=O)O)c1ccccc1,-1.4%,0%,0%,-6
Cc1ccc(S(=O)(=O)N2CCN(C(=O)COC(=O)c3cc(C)oc3C)CC2)cc1,3.1%,-3%,-3%,7
CCc1cccc(Nc2cnn(C34C[C@@H]5C[C@@H](CC(CC(=O)O)(C5)C3)C4)c(=O)c2Cl)c1,-4.1%,-4%,4%,1[21.1 µM]
CCOC(=O)N1CCN(C(=O)c2ccc3c(c2)N(Cc2ccc(F)cc2)CCS3)CC1,0.3%,13%,22%,nt
COc1ccc(C2c3c(-c4ccccc4O)n[nH]c3C(=O)N2Cc2ccco2)cc1OC (configuration not stated),-1.1%,11%,-16%,-1
O=C(NCc1ccccc1)c1cccc(COc2ccc3c(c2)CCC3)c1,-1.6%,-1%,-61%,-17
O=C(NC(=S)Nc1ccc(N2CCCCC2)cc1)c1ccc2c(c1)OCCO2,9.6%,-5%,-41%,-16
COc1ccc2c(c1[N+](=O)[O-])CCC/C2=N/OC(=O)c1ccccc1SC,3.0%,-6%,-6%,-3
Cc1ccccc1C(=O)NNC(=O)c1cc(N)cc([N+](=O)[O-])c1,-3.7%,-2%,-3%,-1
CC(C)n1nnnc1-c1ccc(Cl)cc1,1.1%,-11%,7%,1
COc1ccc(NS(=O)(=O)c2ccc3c(c2)[C@H]2C=CC[C@H]2[C@@H](c2ccc(C(=O)O)cc2)N3)cc1,?,-17%,1%&6%,nt
Cc1cc(Nc2nnnn2-c2ccccc2)n(-c2ccc(Cl)cc2)n1,0.1%,-4%,21%,-9
CCC(=O)Nc1ccc(CCC(=O)N2CCCC2)cc1,0.5%,2%,-3%,nt
CCc1nnc(NC(=O)CS(=O)(=O)c2ccccc2)s1,-1.2%,-7%,-1%,nt
Cc1cc(C)nc(NS(=O)(=O)c2ccc(NC(=O)c3ccccc3C)cc2)n1,-3.5%,17%,-6%,nt
O=C(Nc1cc(Cl)cc(Cl)c1)C1C2C=CC3(O2)C1C(=O)N(CCCN1CCOCC1)C3C(=O)NC1CCCCC1 (configuration not stated),0.2%,1%,-3%,nt
CC(=O)Nc1ccc(NC(=O)C(C)OC(=O)CC2CCCCC2)cc1 (configuration not stated),3.3%,0%,nt,nt
Cc1cccc(-c2nnn3c2nc(NCCc2ccc(S(N)(=O)=O)cc2)c2ccccc23)c1,?,18%,-5%&-11%,13
CC(=O)c1ccccc1C(=O)N1CCCC(CCC(=O)N2CCN(c3ccccn3)CC2)C1 (configuration not stated),0.0%,2%,1%,nt
CCOC(=O)c1c(NC(=O)CN(C)C)sc(C(=O)N(CC)CC)c1C,-3.2%,-4%,-2%,6
S=C(NCCc1ccccc1)Nc1ccccc1,?,0%,-43%,-5
O=S(=O)(CCN1CCCCC1)Oc1ccc(Cl)cc1Cl,-2.4%,-4%,-1%,1
COc1c(O)cccc1/C=N/NC(=O)Cn1ccnc1C,-1.6%,-18%,9%,0
C=CCNC(=S)N/N=C/c1ccc(-c2cccc([N+](=O)[O-])c2)o1,2.6%,-1%,-35%,8
CCN(CC(=O)Nc1c(F)cccc1F)C(=O)c1ccc(N2CCCC2=O)cc1,0.1%,-9%,nt,nt

# Reformatted with values under each structure: part of the list above.
# Order of values – Rango complex inh, Rango release inh, miR-21 reporter, GLA inh pH 4.5
C=CCNC(=S)N/N=C/c1ccc(-c2cccc([N+](=O)[O-])c2)o1
→ 2.6%, -1%, -35%, 8
Cc1cc(C)nc(NS(=O)(=O)c2ccc(NC(=O)c3ccccc3C)cc2)n1
→ -3.5%, 17%, -6%, nt
Cc1cc(C)n2nc(C(=O)N/N=C/c3ccco3)nc2n1
→ -2.7%, -2%, 1%, -5
O=C(NC(=S)Nc1ccc(N2CCCCC2)cc1)c1ccc2c(c1)OCCO2
→ 9.6%, -5%, -41%, -16
COc1ccc2[nH]c3c(c2c1)CCN1C(=O)N([C@@H](C)C(=O)NCCc2ccc(OC)c(OC)c2)C(=O)[C@]31C
→ 3.9%, ?, 5%, nt

# Later entries.
SMILES,Rango complex inh,Rango release inh,miR-21 reporter,GLA inh pH 4.5
Cc1ccc(Cl)c(NC(=O)CN2CCN(C=O)CC2)c1,nt,nt,4%,-3
Cc1ccc(C)c(/C(O)=C2\C(=O)C(=O)N(CCCn3ccnc3)C2c2cccnc2)c1 (configuration not stated),?,-27%,2%,0
COc1ccccc1NC(=O)N1CCN(c2cc(-c3ccccc3)nc3ncnn23)CC1,-2.5%,-5%,16%,1
COc1ccc(CNC(=O)c2cc3c(C)nc4ccccc4c3o2)c(OC)c1,-2.7%,0%,15%,1
COc1cc(NC(=O)c2cc(Cl)nnc2Cl)cc(OC)c1OC,0.7%,-9%,16%,-6
COC(=O)N/N=C/c1ccc(-c2cccc(Cl)c2)o1,-0.2%,-1%,-33%,-6
Cc1c(C(=O)NC(C)CCc2ccccc2)cccc1[N+](=O)[O-] (configuration not stated),-0.5%,0%,-3%,-5
COc1ccc(NC(=O)Cc2coc3cc(C)c(C(C)C)cc23)cc1S(=O)(=O)N1CCOCC1,?,3%,24%,-27
Cc1ccc2nc(-c3ccccc3)cc(C(=O)NCC(c3ccco3)N(C)C)c2c1 (configuration not stated),-2.2%,-10%,nt,nt
N#Cc1c(Cl)cccc1Oc1ccc(S(=O)(=O)Nc2ccccc2)cc1,1.4%,7%,1%,-25
CC(=O)c1cccc(NC(=O)CO/N=C2/CCCc3nonc32)c1,4.3%,-20%,-1%,12
O=C1CC(c2ccco2)CC(O)=C1C=NCCO (configuration not stated),3.0%,9%,-1%,0
Cc1ccc(-n2cc(CNCCCn3ccnc3C)c(-c3ccc(F)cc3)n2)cc1,0.5%,2%,-4%,-9
Cc1cc(C)c(-c2cc(C(=O)Nc3cc(C)ccc3C)[nH]n2)c(O)c1,2.5%,8%,-10%,nt
Cc1cccc(C(=O)Nc2ccc3ccccc3c2)c1,-0.2%,-13%,-30%,nt
CC(C)N(Cc1nccn1C)C(=O)CC1C(=O)NCCN1Cc1ccc(F)cc1 (configuration not stated),-0.1%,-11%,0%,nt
CCN1C(=O)/C(=C\N2CCN(c3ccccc3)CC2)SC1=S,-4.2%,-13%,-7%,-13
Cc1cc(C(=O)COC(=O)c2ccc[nH]c2=O)c(C)n1-c1ccccc1F,-16%,29%,26%,-2
OCCCn1c(-c2ccccc2)nc(=S)c2c1CCCC2,-4.0%,-5%,4%,2
COc1ccc(CNC(=O)c2ccccc2NC(=O)C2=CSCCO2)c(OC)c1,0.4%,-10%,9%,nt
NC1=NC(=O)C(c2ccccc2)(c2ccccc2)S1,2.2%,-2%,nt,nt
Nc1cccc(-c2cn3cccnc3n2)c1,-3.5%,-8%,-14%,5
CCCCCCCCCCCC(=O)NC1CCS(=O)(=O)C1 (configuration not stated),?,-1%,-7%,3
O=C(CCN1C(=O)C2C3C=CC(C3)C2C1=O)Nc1ccc2c(c1)OCO2 (configuration not stated),-9.1%,-9%,-11%,7
O=C(Nc1ccc(OCc2ccccc2)cc1)c1cccc([N+](=O)[O-])c1,2.8%,-12%,-19%,5

# More compounds:
SMILES,Rango complex inh,Rango release inh,miR-21 reporter,GLA inh pH 4.5
Cc1c(N(C)C(=O)c2ccc3c(c2)OCO3)c(=O)n(-c2ccccc2)n1C,4.7%,-8%,-5%,-19
CC(C)CC(NC(=O)C(NC(=O)OC(C)(C)C)C(C)C)C(N)=O (configuration not stated),-1.3%,-15%,-3%,1
Cn1ccc(=NC=C(C#N)C#N)c2ccccc21,?,?,-1%,-9
O=C(CCNC(=O)c1ccc([N+](=O)[O-])cc1)Nc1ccc(F)cc1,4.8%,-9%,1%,nt
N#Cc1cc(-c2ccccc2)oc1NC(=O)c1ccco1,-1.3%,-6%,-30%,-3
Cc1ccc(NC(=O)Cn2c(=O)cnc3ccccc32)cc1S(=O)(=O)N1CCCCC1,-1.2%,-14%,nt,nt
CCCn1nnc(NC(=S)NC(=O)c2cccs2)n1,0.0%,-7%,-46%,7
CC(=O)N=C1SC2CS(=O)(=O)CC2N1c1ccc(-c2nc3ccc(C)cc3s2)cc1 (configuration not stated),nt,nt,-53%,4

# Rewritten as labelled records: entries from further up.
> O=C(CCNC(=O)c1ccc([N+](=O)[O-])cc1)Nc1ccc(F)cc1
- Rango complex inh: 4.8%
- Rango release inh: -9%
- miR-21 reporter: 1%
- GLA inh pH 4.5: nt
> N#Cc1cc(-c2ccccc2)oc1NC(=O)c1ccco1
- Rango complex inh: -1.3%
- Rango release inh: -6%
- miR-21 reporter: -30%
- GLA inh pH 4.5: -3
> Cc1ccc(NC(=O)Cn2c(=O)cnc3ccccc32)cc1S(=O)(=O)N1CCCCC1
- Rango complex inh: -1.2%
- Rango release inh: -14%
- miR-21 reporter: nt
- GLA inh pH 4.5: nt
> CCCn1nnc(NC(=S)NC(=O)c2cccs2)n1
- Rango complex inh: 0.0%
- Rango release inh: -7%
- miR-21 reporter: -46%
- GLA inh pH 4.5: 7
